BJeLR lethal: kills HRASV12-expressing BJeLR cells; AID 1554; actives 0.17% (n = 300,000); inhibition, % (no concentration beside the values); BJeLR (HRASV12) viability, CellTiter-Glo ATP luminescence, 48 h; reference of the scale not given here;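 active = replicate mean above 50%; inconclusive = above 50% but judged a plate artefact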;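 also: 50 nL library stock added to about 25 µL; numbers are from one replicate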
Mtb hypoxia rep: inhibitors of hypoxia-regulated fluorescent reporter in Mycobacterium tuberculosis. actives 0.1% (n = 300,000). AID 1159583. fluorescence inhibition, % (concentration not given with the values). M. tuberculosis hypoxia-regulated fluorescent reporter, fluorescence;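 active = 35 to 45% if threefold the growth effect, above 45% if 1.5-fold the growth effect; inactive = the rest, general growth blockers included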;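 also: wells of about 50 µL received 100 nL stock; 0% = vehicle wells and 100% = reference inhibitor wells; whole bacteria with a GFP reporter of the hypoxia response; strong numbers were not always called active; many hits fall short of the cut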
ugtP null kill: compounds lethal to S. aureus RN4220 ugtP deletion mutant; growth inhibition, % (test concentration not listed); OD600 growth, 16 h; some inactives read as strong as hits; actives 0.54% (n = 330,000);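 active = z-score under -3 and OD600 up to 0.15 on both plates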;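 also: plate controls were untreated wells for no effect and antibiotic for full effect; wells of about 80 µL received 100 nL stock; the first replicate is given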
PrP 5UTR inh: suppresses PrP 5' UTR mRNA reporter expression; cell-based PrP 5' UTR mRNA reporter, plate reader; inhibition, % (no concentration beside the values); actives 0.35% (n = 340,000);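 active = every replicate at 50% or more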;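 also: 0 = median of the neutral control wells; tested in H4 reporter cells; numbers are from one replicate; inactives centre near -14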
Sa RN4220 lethal: kills Staphylococcus aureus RN4220. S. aureus RN4220 growth, OD600, 16 h. inhibition, % (no concentration beside the values). actives 0.33% (n = 330,000);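 active = z-score of -3 or lower and OD600 up to 0.18 on both plates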;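 also: plate controls were untreated cells for no effect and reference antibiotic for full effect; stock transfer was 100 nL into about 80 µL; one replicate is shown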
Autofluor counter: counter-screen for toxin protease inhibitors: compound fluorescence. actives 3.1% (n = 360,000). fluorescence intensity (concentration not given with the values). compound autofluorescence counterscreen, microsphere flow cytometry; stronger effect = higher value;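 active = at least 3 SD above the mean of all compounds, about 16000 in these data; inconclusive = too few beads counted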;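 also: 100 nL of 1 mM stock went into each well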
Mtb hypoxia rep growth: also measured in Mtb hypoxia rep; calls as there; growth inhibition, %; measured here: M. tuberculosis growth (absorbance);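 0% = vehicle and 100% = reference antibiotic; read after six days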
Numbers without * were called inactive; ? = inconclusive; / = not tested or not shown.

SMILES	BJeLR lethal	Mtb hypoxia rep	Mtb hypoxia rep growth	ugtP null kill	PrP 5UTR inh	Sa RN4220 lethal	Autofluor counter
CCOc1ccc(C2N(c3ccc(F)cc3)C(=O)C3CCCN32)cc1OC (configuration not stated)	-3	/	/	-4	0	0.0	6312
CCC(C)(C)n1nnnc1C(c1ccc(OC)c(OC)c1)N1CCN(C(=O)c2ccco2)CC1 (configuration not stated)	-6	4	0	2	-7	1.8	6600
Cc1ccc(OCCNC(=O)c2cccc(S(=O)(=O)NCc3ccccc3)c2)cc1	/	0	-1	2	-28	0.9	6824
CC(C)(C)c1csc(NC(=O)c2ccc3nccnc3c2)n1	-2	-2	10	-24	-84	17	4855
O=C(NN=Cc1cc([N+](=O)[O-])ccc1N1CCOCC1)c1ccccn1	/	11	4	12	/	1.6	/
CC(CCc1ccccc1)NC(=O)c1ccc(NC(=O)c2ccc(Cl)cc2Cl)cc1 (configuration not stated)	-6	-1	-16	-18	-11	-11	2075
O=[N+]([O-])c1ccccc1-c1nc(-c2ccc(Br)o2)no1	-11	15	10	-12	-92	8.9	2561
COc1cccc(/C(C)=N/NC(=O)c2ccc(N(C)C)cc2)c1	2	/	/	/	-55	/	2734
O=C(NNC(=O)c1cccc2ccccc12)c1cccc(Br)c1	/	8	8	-5	-46	0.3	3677
COc1ccccc1Oc1nc2c(c(=O)n(Cc3ccccc3F)c(=O)n2C)n1C	2	/	/	1	-23	2.0	4987
O=C(c1ccccc1)N(Cc1ccc2c(c1)OCO2)Cc1nc2ccccc2c(=O)[nH]1	-20	/	/	6	-12	1.4	2879
CCOC(=O)c1cc(C#N)c(N2CCN(c3ccccn3)CC2)nc1-c1ccccc1	4	12	-15	1	-5	5.9	3168
CCC(COC(=O)NC)NC(=O)Oc1cccc(C)c1 (configuration not stated)	7	9	7	9	8	5.8	3045
CCN1C(=O)[C@H]2[C@@H](c3ccc(-c4cccc(Cl)c4)cc3)N3CCCC[C@@]3(C(=O)OC)[C@H]2C1=O	-2	/	/	/	-16	/	3651
Cn1cc(C(=O)OCC(=O)N2CCCC2)c2ccccc21	/	11	10	8	2	3.2	/
O=C(NCc1cc(C(F)(F)F)cc(C(F)(F)F)c1)C1CC(c2cccc(F)c2)=NO1 (configuration not stated)	-5	13	4	-2	-8	1.2	4109
O=C(/C=C/Nc1ccc(F)c(F)c1)c1cccs1	-8	8	2	-1	-58	6.9	9302
CCc1ccc(C(=O)CSc2n[nH]c(C)n2)cc1	3	6	8	-1	-40	3.7	21979*
Cc1cccc(NC(=O)COc2ccc3oc4c(c3c2)CCCC4)n1	11	11	-2	1	-13	7.6	23564*
CN1CCN(C(=O)C(N)Cc2ccccc2)CC1 (configuration not stated)	-12	-2	8	-5	-8	2.6	5523
CCOC(=O)CSc1n[nH]c(NC(=O)c2cccc(C)c2)n1	2	3	8	2	-27	1.7	10084
Cc1ccc(/C=C2\SC(=S)N(CCCC(=O)NNC(=O)c3ccccc3O)C2=O)cc1	-12	/	/	/	53*	/	4669
CCOC(=O)c1c(NC(=O)CSc2nnc(-c3ccccc3C)n2C)sc(C(C)=O)c1C	-5	13	7	2	-16	1.1	10192
COC(=O)C1C[C@@]2(O)C(O)C(O)C(O)CC2N1Cc1ccc(Cl)cc1 (some centres not stated)	/	13	6	2	/	8.6	/
CCNC(=O)N1CCN(S(=O)(=O)c2ccc3c(c2)OCCCO3)CC1	/	7	6	3	-4	3.1	5338
CC(=O)Nc1ccc2c(c1)C(=Nc1cccc(C)c1)c1ccccc1-2	/	4	2	6	-38	-0.8	4264
NC(=O)C(=O)N/N=C/c1c2ccccc2cc2ccccc12	5	/	/	/	-4	/	5315
CCCc1nc2ccccc2c(=O)n1/N=C/c1ccccc1O	6	/	/	/	-18	/	2979
O=C(c1ccccc1)c1ccc(C(=O)N2CCCC(C(F)(F)F)C2)cc1 (configuration not stated)	2	5	15	3	1	2.7	?
Cc1csc2ncnc(N3CCN(C(=S)Nc4ccc(F)cc4F)CC3)c12	-6	10	12	-3	/	1.5	/

2 compounds from above with just BJeLR lethal and Sa RN4220 lethal:
molecule	BJeLR lethal	Sa RN4220 lethal
CCOC(=O)CSc1n[nH]c(NC(=O)c2cccc(C)c2)n1	2	1.7
Cc1ccc(/C=C2\SC(=S)N(CCCC(=O)NNC(=O)c3ccccc3O)C2=O)cc1	-12	/

Continuation.
SMILES	BJeLR lethal	Mtb hypoxia rep	Mtb hypoxia rep growth	ugtP null kill	PrP 5UTR inh	Sa RN4220 lethal	Autofluor counter
COc1ccc(CN2CCN(C(=O)CC(C)C)CC2)cc1	2	15	3	6	-20	4.8	3944
Cn1c(N2CCCCC2)nc2c1c(=O)[nH]c(=O)n2C	9	11	5	9	-9	-1.6	16214*
COC(=O)c1ccc(NS(=O)(=O)c2c(C)[nH]c(C)c2C(=O)N2CCCC2)cc1	7	5	7	0	-6	0.5	5867
Cc1ccc(C(=O)NC(=S)Nc2cccnc2Cl)cc1	-12	15	12	44	-44	8.4	5505
CCOc1cccc(-c2c(C(=O)N/N=C/c3cccs3)nnn2-c2nonc2N)c1	-7	/	/	/	5	/	4272
C=CCSc1nnc(CSc2nc3sc4c(c3c(=O)[nH]2)CCCC4)n1-c1ccccc1	3	-3	1	-17	-32	2.3	2464
COc1cccc(C2CC(C(F)(F)F)n3ncc(C(=O)NCc4ccco4)c3N2)c1 (configuration not stated)	-4	4	1	1	-23	2.5	3141
CCOC(=O)N1CCN(Cc2nc3c(c(=O)n(C)c(=O)n3C)n2CCC(C)C)CC1	5	5	2	5	-17	-7.1	6314
CCOc1ccccc1N1CCN(C(=O)c2cc3ccccc3cc2OC)CC1	/	9	12	-7	11	1.0	5521
CC(NC(=O)Cc1ccc(Br)cc1)c1ccccc1 (configuration not stated)	3	11	8	6	-89	0.5	3155
CC(C)[C@H]1COCCS(=O)(=O)N1Cc1ccccc1-c1ccccc1	/	5	7	-9	-7	7.6	3820
O=C(Nc1cccnc1)c1cc2c(s1)-c1ccccc1OC2	8	-8	4	-12	-22	-5.1	5601
CCCCCCOc1ccc(CN2CCN(CC)CC2)cc1	1	12	9	43	-26	4.9	6977
CCCCC(=O)Nc1cc([N+](=O)[O-])ccc1F	8	17	11	0	-26	10	3983
CC(=O)NC(Cc1ccc(F)c(F)c1)C(=O)NC1CCN(c2c(Cc3ccccc3)c(C)nc3ncnn23)CC1 (configuration not stated)	-3	2	5	5	-12	-3.4	3174
COc1ccc(OCCCC(=O)N2CCN(S(=O)(=O)c3cccc(F)c3)CC2)cc1	3	10	-1	3	-18	0.8	/
O=C(C[C@H]1C[C@H](C(=O)N2CCOCC2)[C@@]2(CCC3CCCC3)c3[nH]c4ccc(Cl)cc4c3CCN2C1=O)NCCN1CCOCC1	/	-8	1	-1	-13	3.3	3949
O=C(CCS(=O)(=O)c1ccc(Br)s1)NCc1ccccc1	-6	5	6	0	-21	2.4	3796
COCc1cc(=O)[nH]c(N=C(N)Nc2cccc(Cl)c2)n1	/	15	0	0	/	2.8	/
NC(=O)c1ccc(OCC(F)(F)F)nc1	6	2	-5	4	-16	-0.6	3437
O=C(COc1ccc(Cl)cc1)Nc1ncc([N+](=O)[O-])s1	12	-6	11	98*	-93	100*	3895
Cc1cc(C(F)F)n2nc(C(=O)Nc3sc4c(c3C(N)=O)CCC4)nc2n1	-3	/	/	/	-17	/	9156
Oc1c(C(c2ccccn2)N2CCOCC2)ccc2cccnc12 (configuration not stated)	6	7	10	10	-25	3.1	11206
O=C(C1=C(O)C(=O)N(CCOCCO)C1c1ccccn1)c1cccs1 (configuration not stated)	-8	17	13	4	-21	4.9	/
C=CCN1CCN(C(c2ccc(OC)c(OC)c2)c2nnnn2C(C)(C)C)CC1 (configuration not stated)	2	/	/	2	-9	-1.9	2321
Cc1cnc(C(=O)Nc2nccs2)cn1	6	/	/	5	-50	5.3	3442
CC(C)(C)C1CCc2c(sc(NC(=O)CSc3ncn[nH]3)c2C#N)C1 (configuration not stated)	-2	-9	1	88*	3	-13	5877
NC(=O)c1cccc(C(N)=O)n1	-9	-8	-13	-3	2	-2.5	4269
CCCCCOc1ccc(C2C(C(=O)c3ccc(C)o3)=C(O)C(=O)N2c2cc(C)on2)cc1 (configuration not stated)	-4	/	/	/	-31	/	5389
COc1ccc(NC(=O)c2cccs2)cc1O	12	/	/	2	-44	0.8	4121
O=C(COC(=O)C12CC3CC(CC(Br)(C3)C1)C2)Nc1cccc(S(=O)(=O)N2CCOCC2)c1	/	7	5	1	-4	2.5	2967
CCCNC(=O)C(=O)NCCC1=CCCCC1	-3	/	/	-4	-4	-0.8	2163
c1cc(-c2sc(-c3ccncc3)c(-c3ccncc3)c2-c2ccncc2)ccn1	11	-3	0	-7	/	-1.3	/
CC(C(N)=O)N1C(=O)C2C3C=CC(C3)C2C1=O (configuration not stated)	8	-6	3	-4	-26	5.1	9680
Cc1ccc(N2C(=O)CSC23C(=O)Nc2ccccc23)cc1 (configuration not stated)	4	8	7	-1	-16	2.0	?
CCOC(=O)c1sc2nc(C)cc(C)c2c1NC(=O)c1ccco1	-5	-9	2	-1	-25	1.8	3284
Cc1cc(S(=O)(=O)NCCN2CCOCC2)ccc1Cl	3	2	-3	6	-10	1.8	3931
CC(C)CNS(=O)(=O)c1ccc(CCC(=O)NCc2ccc(Cl)cc2)cc1	2	3	6	-2	-13	28	3569
CC(NC(=O)COC(=O)CN1C(=O)C2CCCCC2C1=O)c1ccccc1 (configuration not stated)	/	6	12	5	-19	1.6	4032
CC1=CC(C)(C)NC(=S)N1CCO	/	7	7	-7	-19	-4.5	3745
COC(=O)CSc1nc(Cc2ccccc2)nc2ccccc12	7	10	6	1	-18	8.1	4508
O=C(CCCC(=O)OCC(F)(F)C(F)F)Nc1ccccc1F	3	9	2	-6	-19	5.9	3303
Cc1nc(NC(=O)CSc2nnc(-c3ccc4c(c3)OCO4)o2)c(Cl)cc1Cl	-5	11	-4	1	-12	4.2	2494
Oc1ccccc1C(=S)N1CCCCC1	2	7	7	-3	-15	-12	2874
C=CCn1c(SCC(=O)NCC2CCCO2)nc2scc(-c3ccco3)c2c1=O (configuration not stated)	4	11	9	9	-28	2.6	22083*
COc1ccccc1CNC(=O)COC(=O)Cc1c(F)cccc1Cl	7	5	6	-2	-10	4.9	3475
CN1c2ccccc2N(C)C1c1ccc2c(c1)OCO2	9	2	-7	-5	-27	1.8	6013
O=C(c1ccc2ccccc2c1)C1CCCN(C(=O)CCn2cnnn2)C1 (configuration not stated)	-15	8	3	3	-24	-1.8	4197
CCC(=O)N1CCN(c2ccc(NC(=O)c3ccc4c(c3)OCCO4)cc2)CC1	15	2	8	2	-20	3.4	4275
COC(=O)c1ccc(NC(=O)CS(=O)(=O)Cc2ccccc2)cc1	20	2	14	-1	-11	-1.5	4507
O=c1c2ccccc2nc(-c2ccccc2)n1CCCN1CCOCC1	-9	6	2	2	-21	2.8	16595*
COc1cc([N+](=O)[O-])c(C(=O)N2CCOCC2)c([N+](=O)[O-])c1	6	0	3	4	-14	4.9	2387
CCCCc1ccc(NC(=O)Nc2c(C)n(C)n(-c3ccccc3)c2=O)cc1	7	-3	3	-3	-19	3.8	5593
Cc1ccc(Nc2nc(COC(=O)C3CC3)cs2)cc1	0	22	16	-2	-60	0.3	4186
Cn1c(=O)[nH]c2ncn(C)c2c1=O	-3	-13	-8	0	-20	3.3	5244
Cc1ccc(C)c(NC(=S)NCCN2CCOCC2)c1	0	/	/	2	-13	2.1	2422
C=CCn1c(SCC(=O)NCc2ccccc2)nnc1-c1ccccc1O	1	2	11	-5	-27	2.9	10291
CCOc1ccccc1NC(=O)c1c(NC(=O)CCC(=O)O)sc2c1CCCCC2	/	-2	2	2	-15	6.0	2728

At a glance, some entries already given.
SMILES	BJeLR lethal	Mtb hypoxia rep	Mtb hypoxia rep growth	ugtP null kill	PrP 5UTR inh	Sa RN4220 lethal	Autofluor counter
COc1ccccc1CNC(=O)COC(=O)Cc1c(F)cccc1Cl	7	5	6	-2	-10	4.9	3475
CN1c2ccccc2N(C)C1c1ccc2c(c1)OCO2	9	2	-7	-5	-27	1.8	6013
